Rango-impB inh: Rango-importin beta binding inhibition | Q14974 | Rango CFP/YFP FRET sensor + importin beta, 45 min | Potency, µM (doses to about 92.2 µM), inactives show at the highest dose inhibition of complex formation | 340,000 tested, 0.031% active | AID 540263; active = rising FRET ratio curve, often small or poorly fitted; inconclusive = mostly compound fluorescence or quenching in the first reads; inactive = flat curves in all reads;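 note: potency is the fitted concentration of half-maximal effect; 0% = DMSO wells and 100% = buffer wells lacking importin beta; nearly all actives have a fitted effect of over 15% in size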
Target sequence (Q14974 whole entry, looked up): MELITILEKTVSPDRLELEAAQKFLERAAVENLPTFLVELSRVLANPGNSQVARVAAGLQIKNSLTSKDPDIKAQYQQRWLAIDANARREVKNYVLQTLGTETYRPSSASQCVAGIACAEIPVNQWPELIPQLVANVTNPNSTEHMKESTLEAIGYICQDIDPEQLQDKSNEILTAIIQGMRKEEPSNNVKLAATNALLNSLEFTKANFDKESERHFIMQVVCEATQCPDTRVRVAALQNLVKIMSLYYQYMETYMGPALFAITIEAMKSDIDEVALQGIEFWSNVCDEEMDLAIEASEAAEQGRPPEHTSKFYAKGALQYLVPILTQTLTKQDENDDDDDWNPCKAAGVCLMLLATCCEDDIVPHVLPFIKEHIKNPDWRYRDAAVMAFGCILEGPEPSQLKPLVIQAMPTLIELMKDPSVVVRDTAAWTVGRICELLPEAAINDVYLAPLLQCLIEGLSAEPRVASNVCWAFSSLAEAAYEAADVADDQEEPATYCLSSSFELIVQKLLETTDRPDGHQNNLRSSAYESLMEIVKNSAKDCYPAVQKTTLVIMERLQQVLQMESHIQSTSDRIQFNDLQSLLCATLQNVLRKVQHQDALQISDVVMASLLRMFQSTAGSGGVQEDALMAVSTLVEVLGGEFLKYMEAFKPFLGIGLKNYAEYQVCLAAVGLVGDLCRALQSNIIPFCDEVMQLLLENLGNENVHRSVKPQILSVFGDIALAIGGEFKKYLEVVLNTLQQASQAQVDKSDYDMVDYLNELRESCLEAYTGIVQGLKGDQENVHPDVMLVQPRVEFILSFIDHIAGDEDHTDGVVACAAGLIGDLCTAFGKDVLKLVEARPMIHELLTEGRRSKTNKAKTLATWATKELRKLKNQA
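Inhibition scored from the CFP 486 nm/YFP 530 nm FRET ratio 45 min after adding 0.125 microM importin beta to 50 nM Rango biosensor preincubated 5 min with compound (room temperature, PBS with DTT, Tween-20, BSA). No-importin wells as positive control.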
GLA inh pH 4.5: blocks human alpha-galactosidase A at pH 4.5; 230,000 tested, under 10 active; activity change, negative = inhibition, % at 105 µM; purified enzyme, 4-MU-alpha-Gal fluorescence, pH 4.5; P06280; inconclusive = small, poorly fitted or top-dose-only inhibition, or a rising curve; inactive = flat fitted curve, though single readings scatter; no compound was filed as active;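 note: 0% = full activity with enzyme and -100% = basal without enzyme; dose as in the result columns while the protocol names 77 µM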
miR-21 reporter: miR-21 reporter, rising signal; HeLa miR-21 FLuc reporter, luciferase, 48 h; Potency, µM (top dose mostly 38.3 µM), inactives show top-dose reporter change, positive = more light; 340,000 tested, under 10 active; AID 2288; active = well fitted rising curve with a large enough effect; inconclusive = small, poorly fitted or top-dose-only effect; inactive = no such curve, though single readings can be large or run the other way;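 note: % of control where 0% means no effect; miR-21 action dims this reporter so a rising signal means less miR-21 action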
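HeLa miR-21-FLuc reporter line, endogenous miR-21; 2000 cells/well in DMEM/10% FBS; compound titration up to ~40uM final, 48 h, 37 degree Celsius; luciferase detection reagent, 15 min lysis, CCD luminescence.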
Rango release inh: inhibitors of RanGTP-induced Rango-importin beta complex dissociation. Biochemical FRET Rango-importin beta, RanGTP-induced dissociation. 340,000 tested, 0.071% active. Potency, µM (top dose mostly 46.1 µM), without a hit: at the top dose activity change, negative = inhibition. AID 540253; active means falling FRET ratio curve, often poorly fitted, with flat reads before Ran was added; inconclusive means other falling curves, or compound fluorescence or quenching; inactive means flat or rising ratio curve;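 note: potency is the fitted concentration of half-maximal effect; % of control where 0% means no effect; nearly all actives have a fitted effect of over 45% in size; -100% = wells without RanGTP and RCC1; the record marks most hits as doubtful in a second field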
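Two FRET readings bracket the reaction: one 5 min after compound meets Rango–importin beta, another 45 min after RanGTP-RCC1 (0.6 uM Ran, 0.2 uM RCC1, 2 mM GTP) is added. Only the second defines inhibition.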
Active calls of the source: *; ? = inconclusive; nt = not tested or not shown. Only part of the results is shown. The share of hits here may be higher or lower than overall.

SMILES	Rango-impB inh	GLA inh pH 4.5	miR-21 reporter	Rango release inh
COc1ccccc1CC(=O)Nc1cc(OC)c(NC(=O)c2ccccc2)cc1OC	1.4%	nt	2%	4%
CC(=O)Nc1cccc(OCc2c(F)cccc2Cl)c1	-5.0%	-3	-10%	-7%
Cn1c(=O)n(CC(=O)Nc2cccnc2)c2ccccc21	2.2%	nt	nt	0%
O=C(CCc1nc2ccccc2[nH]c1=O)N/N=C/c1ccccc1	3.8%	9	-2%	14%
O=C(O)c1ccc(N/N=C/C(Br)=C/c2ccccc2)cc1	?	-15	-31%	?
COCc1cc(=O)n2[nH]c(-c3cccs3)cc2n1	-3.0%	-2	-8%	1%
CN(C)c1ccc(NC(=O)COC(=O)c2cc(=O)c3ccccc3o2)cc1	-2.9%	12	-4%	8%
O=c1c(Cc2c(F)cccc2Cl)c(O)ccn1CC1CCCO1 (stereo not drawn)	-0.9%	4	-3%	-5%
CCOC(=O)c1cc(CN2CCOCC2)oc1-c1ccccc1	-0.1%	-1	-10%	8%
COc1ccc(NC(=O)CSc2nc3ccccc3nc2N2CCCC2)cc1Cl	?	nt	-11%	-17%
Cn1cnc(C(=O)N2CCN(c3ccccc3)CC2)c1C(=O)N1CCN(c2ccccc2)CC1	0.9%	nt	nt	25%
C=CCN(CC(=O)NCc1ccc(F)cc1)C(=O)c1csnn1	-2.9%	-2	-6%	-12%
O=C(NC(=S)N1CCN(C/C=C/c2ccccc2)CC1)c1ccco1	-0.7%	6	-5%	-17%
O=C1CCC(=O)N1c1ccc(NCc2ccccc2Cl)c([N+](=O)[O-])c1	3.7%	-22	-12%	-5%
O=C(c1ccco1)N1CCN(C2CCCC2)CC1	0.0%	0	-5%	7%
Cc1ccc(-c2nc(N)sc2CC(=O)OCC(=O)NC2CCCC(C)C2C)cc1 (stereo not drawn)	-0.6%	-4	0%	11%
O=C(C=Cc1ccccc1)c1cc(Br)ccc1O	-3.7%	nt	nt	-18%
S=C(NCCSCc1ccc(Cl)c(Cl)c1)Nc1ccccc1	1.6%	nt	nt	-3%
CC1CCCCN1C(=O)CSc1nnc(-c2ccc(Cl)s2)o1 (stereo not drawn)	-3.8%	2	-39%	-5%
COc1ccccc1CN(Cc1cc2cc(C)ccc2[nH]c1=O)Cc1nnnn1Cc1ccco1	-2.6%	-4	-1%	2%
CC1CCCCC1NC(=O)COC(=O)C12CC3CC(CC(Cl)(C3)C1)C2 (stereo not drawn)	2.2%	-1	-1%	2%
O=C(Cc1cccc(NC(=O)C2CCCN(C(=O)C3CCCCC3)C2)c1)Nc1cccc(C(=O)N2CCCCC2)c1 (stereo not drawn)	-2.2%	nt	nt	3%
CCC(Sc1ncccc1C(=O)OC(C)C)C(=O)NCc1ccco1 (stereo not drawn)	-5.3%	-4	6%	1%
C#CCOCCOCCOCCNc1nc(N2CCN(C(=O)CCCCCCCCCCNC(=O)[C@H]([C@@H](C)CC)n3cc(CCCCCN)nn3)CC2)nc(N2CCN(C(=O)CCCCCCCCCCNC(=O)[C@H](CO)n3cc(CCCCCN)nn3)CC2)n1	12%	nt	nt	21%
C=CCNC(=O)CC(=O)N/N=C/c1cccs1	1.8%	-4	-1%	1%
Following part
SMILES	Rango-impB inh	GLA inh pH 4.5	miR-21 reporter	Rango release inh
O=C(NCCNCc1ccccc1)c1ccco1	?	nt	nt	?
CN(C)c1nc(N)ncc1-c1ccc(Oc2ccccc2)cc1	2.7%	nt	-1%	26%
CN(CCO)c1cc(N2CCCCC2)c2nonc2c1[N+](=O)[O-]	3.0%	-10	0%	-6%
O=C(COC(=O)CCC(=O)c1ccc(Cl)cc1)NC1CC1	0.9%	-1	-1%	-9%
Cc1cc(/C=N/NC(=O)Cn2c3ccccc3c(=O)c3ccccc32)c(C)n1-c1ccc(Cl)cc1	?	14	-7%	?
CCCc1cc(=O)oc2cc(C)cc(O)c12	?	-4	1%	?
O=C(CNC(=O)c1ccc(Br)o1)NNC(=O)c1ccccc1F	2.5%	nt	-1%	-6%
O=[N+]([O-])c1cc([N+](=O)[O-])c2cccnc2c1Oc1ccccc1O	-0.5%	1	-14%	-17%
Cc1cc(C)n(CC(O)COc2ccccc2)n1 (stereo not drawn)	0.0%	6	0%	9%
COc1cccc2cc(CC(=O)c3cc(C)ccc3C)c(=O)oc12	-1.6%	nt	-35%	-5%
CSc1sccc1/C=C(/C#N)C(=O)c1ccco1	2.8%	nt	-5%	-11%
O=C(COc1ccc(Cl)cc1)Nc1ccc2c(c1)CCC2	1.5%	6	-12%	-8%
O=C(CN1C(=O)c2ccc([N+](=O)[O-])cc2C1=O)NC1CCCCCC1	0.6%	nt	nt	-4%
Cc1ccc(NC(=O)CSCC(N)=O)cc1C	-1.1%	-1	-9%	2%
CCc1cc2c(cc3c(=O)n(CC(=O)N4CCN(C)CC4)ncn32)s1	0.7%	nt	-6%	13%
Cc1ccc(NC(=S)NC(=O)C2CC2)c(C)c1	-2.5%	nt	-52%	-16%
N#Cc1ccc(Oc2ccc(C#N)c(C#N)c2)cc1C#N	-3.5%	nt	nt	0%
CCCn1c(=S)[nH]c2cc(C(=O)N3CCN(C(=O)OCC)CC3)ccc2c1=O	-0.4%	nt	0%	-1%
CCC1CCCCN1C(=O)c1ccc(OC)c(OC2CCN(C(C)=O)CC2)c1 (stereo not drawn)	-2.6%	nt	-4%	0%
Cn1c(/C(C#N)=C/c2ccc(-c3ccc(S(N)(=O)=O)cc3)o2)nc2ccccc21	?	-1	19%	?
O=c1c(Cl)c(NCc2ccco2)cnn1C12CC3CC(CC(C3)C1)C2	2.9%	11	-7%	2%
CCn1cc(C(=O)O)c(=O)c2cc(F)c(N3CCN(S(=O)(=O)c4ccc(NC(=O)OC)cc4)CC3)cc21	-2.5%	3	0%	1%
CC(=O)NC1(C(F)(F)F)NC(=O)N(C2CCCCC2)C1=O (stereo not drawn)	-2.3%	4	0%	1%
CC(NC(=O)CN1C(=O)c2ccccc2C1=O)c1ccccc1 (stereo not drawn)	-1.2%	nt	0%	1%
Cc1ccc(S(=O)(=O)N(C)C)cc1NC(=O)C(C)OC(=O)C1CCCCC1 (stereo not drawn)	-0.4%	nt	nt	2%
The results go on.
SMILES	Rango-impB inh	GLA inh pH 4.5	miR-21 reporter	Rango release inh
COc1cccc(CNC2CCCC2)c1	-0.2%	7	0%	0%
CCOC(=O)C1=C(COC(=O)c2cc(OC)c(OC)cc2[N+](=O)[O-])NC(=O)NC1C (stereo not drawn)	?	nt	nt	-12%
CC(=O)Nc1ccc(C(=O)CN2CCN(c3ccccc3)CC2)cc1	-2.6%	nt	1%	11%
O=C(COC(=O)/C=C/c1cccc(Cl)c1)Nc1cccc(S(=O)(=O)NC2=NCCC2)c1	0.6%	nt	nt	5%
Cc1cc2nc(CCN(C(=S)NCC(C)C)C3CCCC3)[nH]c2cc1C	0.4%	-2	23%	-7%
O=C(Cn1ccc([N+](=O)[O-])n1)N1CCCCC1	-2.0%	-20	-1%	0%
O=C(N/N=C/c1ccc(OC(F)F)cc1)c1cccc(S(=O)(=O)N2CCOCC2)c1	-3.2%	-4	-2%	0%
COc1ccccc1CN1CC(C(=O)NCCc2ccccc2Cl)CCC1=O (stereo not drawn)	1.3%	nt	-21%	-11%
Cc1cc(C(=O)Nc2ccccc2C(F)(F)F)no1	3.1%	4	-7%	-1%
O=C(OCC(=O)N1CCCCCC1)c1ccccc1Br	?	nt	nt	-5%
CC1C(=O)CC(c2ccc([N+](=O)[O-])cc2)NC1c1ccc([N+](=O)[O-])cc1 (stereo not drawn)	-1.0%	-5	0%	9%
CCSc1ccccc1C(=O)NCc1ccc(S(N)(=O)=O)cc1	3.8%	-25	-3%	1%
N#Cc1c(F)cccc1NCc1cccnc1	-0.1%	nt	4%	3%
O=c1[nH]c2cc3c(cc2cc1C(c1nnnn1CC1CCCO1)N1CCCCCC1)OCO3 (stereo not drawn)	nt	-3	-11%	nt
CC(=O)N(c1ccccc1)C(C)c1nc(C#N)c(C#N)nc1C (stereo not drawn)	-0.3%	6	5%	0%
CCC1SC(CC)C(=O)N(CC(=O)NC2CCCCC2)C1=O (stereo not drawn)	1.0%	-2	-2%	-5%
O=C(O)CCCC(=O)Nc1ccccc1C(=O)O	7.9%	4	1%	-13%
C=CCn1c(SCC(=O)Nc2ccc3c(c2)OCCO3)nnc1-c1ccccn1	-8.1%	0	-2%	0%
COc1ccc(C2=NCC(CSc3nnnn3C)S2)cc1 (stereo not drawn)	0.9%	1	22%	-5%
CCCCN1c2cc(C)c(O)cc2C(C(=O)OCC)C1C (stereo not drawn)	?	2	-4%	10%
CC(=O)c1cc(C(c2csc(C(C)=O)c2)c2csc(C(C)=O)c2)cs1	2.4%	3	-1%	0%
CCOc1cc(/C=C(\C(=O)O)c2ccc(S(=O)(=O)N3CCCC3)s2)ccc1OC	?	nt	nt	-7%
O=C(CCc1nc(-c2ccccc2F)no1)Nc1ccc(Oc2ccccc2)cc1	0.4%	-10	28%	1%
N#Cc1ccc(NC(=O)Cn2cnc(S(=O)(=O)N3CCc4ccccc43)c2)cc1	-0.2%	nt	4%	7%
CC(CCc1ccccc1)NC(=O)CN1CCOc2ccccc21 (stereo not drawn)	-2.5%	nt	nt	1%
The list continues:
SMILES	Rango-impB inh	GLA inh pH 4.5	miR-21 reporter	Rango release inh
CN(C)CCNc1ccc(Cl)cc1[N+](=O)[O-]	1.0%	3	-7%	29%
N=C1C(c2ccccc2)=C(O)CN1c1cccc(S(N)(=O)=O)c1	-1.1%	-2	-4%	0%
Cc1ccc(N2CC(=O)Nc3c(oc4nc(-c5ccccc5)cc(C)c34)C2=O)cc1	?	3	-11%	-3%
CCOC(=O)C1=C(C)Nc2nc(SCc3cccnc3)nn2C1c1ccc(OC)cc1 (stereo not drawn)	16%	4	-4%	?
O=C(CSc1nnc(-c2ccccc2)o1)NCC1CCCCC1	2.6%	-3	-8%	-12%
Cn1c(=O)c2c(SCC(=O)Nc3cccc(F)c3)nc(-c3ccco3)nc2n(C)c1=O	-2.6%	nt	-1%	-10%
COc1ccccc1NC(=O)C1CCCCN1S(=O)(=O)c1ccc(F)cc1 (stereo not drawn)	3.5%	1	6%	3%
COc1ccc(-c2c(C#N)c(N)n(N)c(=O)c2C#N)cc1Cl	?	-2	-11%	0%
Nc1nc(SCc2ccccc2)cc(SCc2ccccc2)n1	3.7%	nt	nt	12%
COc1ccc(S(=O)(=O)c2ccc(O)cc2)cc1	-4.1%	-10	6%	1%
O=C(NCc1ccco1)C12CN(Cc3ccccc3)CC1C(c1cccc([N+](=O)[O-])c1)=NO2 (stereo not drawn)	-1.0%	-5	1%	-5%
COc1cccc(-n2cnc3sc(C)c(C)c3c2=O)c1	-1.5%	2	-61%	6%
Cc1cc2nc(Cl)c(Cl)nc2cc1C	-0.2%	0	0%	4%
C[C@@H]1C(c2cccc(Cl)c2)=NN(c2ccccc2)[C@H]1C(=O)N1CCOC1=O	?	-6	nt	?
O=C1c2ccccc2C(=O)N1CC(=O)N1c2ccccc2Sc2ccccc21	0.9%	-9	2%	10%
Cc1ccc(-n2c(SCC(=O)NCc3cccs3)nnc2-c2ccoc2C)cc1	-1.5%	-2	-7%	-6%
CC1CC(C)CN(C(=O)c2cc(-c3ccccn3)nc3ccccc23)C1 (stereo not drawn)	0.5%	-1	0%	3%

Compound activity as filed in PubChem BioAssay.
